VDR inh: blocks the human vitamin D receptor; P11473; VDR-SRC2-3 peptide fluorescence polarization, 2 h; Potency, µM, inactives show max response, negative = inhibition, most hits filed as inhibitors; 400,000 tested, 0.93% active; active = well fitted inhibition curve with a large enough effect; inconclusive = small, poorly fitted or top-dose-only effect, or another doubt; inactive = no such curve, though single readings can be large or run the other way; also: series mostly up to about 120 µM
Target sequence (P11473 whole entry, looked up): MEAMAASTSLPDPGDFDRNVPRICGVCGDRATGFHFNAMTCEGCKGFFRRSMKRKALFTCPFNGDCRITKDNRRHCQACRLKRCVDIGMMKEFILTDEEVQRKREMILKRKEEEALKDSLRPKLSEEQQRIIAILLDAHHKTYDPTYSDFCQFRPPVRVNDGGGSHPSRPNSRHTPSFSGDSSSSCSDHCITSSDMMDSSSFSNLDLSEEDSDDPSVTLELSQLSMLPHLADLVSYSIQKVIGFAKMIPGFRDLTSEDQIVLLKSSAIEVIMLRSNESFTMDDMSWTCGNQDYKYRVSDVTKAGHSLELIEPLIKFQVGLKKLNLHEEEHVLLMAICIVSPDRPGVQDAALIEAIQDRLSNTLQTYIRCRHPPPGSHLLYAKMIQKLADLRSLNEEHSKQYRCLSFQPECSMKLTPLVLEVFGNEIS
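Fluorescence polarization assay of small-molecule disruption of VDR binding to coregulator peptide SRC2-3. Compounds and controls pin-transferred, then read after 2 h incubation at ambient room temperature.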
Numbers without * were called inactive; ? = inconclusive; & = joins results of further samples; [ ] = dose if it differs, or a comment. % is scaled to controls: 0 for no effect and ±100 for the full control effect; potency is read from the fitted curve at half-maximal effect. An excerpt, so the mix of outcomes need not match the whole.

SMILES	VDR inh
CCN(CCCNC(=O)CC1Oc2ccc(C)cc2NC1=O)Cc1ccccc1 (stereo not drawn)	-8%
Cc1ccc(NC(=O)N2CCc3cc(S(=O)(=O)N4CCC(C)CC4)ccc32)cc1F	0%
Cn1cccc1/C=N/N1CCN(Cc2ccccc2)CC1	-1%
Cc1cc(=O)c2ccc(Cl)cc2[nH]1	-19%&-5%
C[C@H](CO)N1C[C@H](C)[C@@H](CN(C)Cc2ccc(C(=O)O)cc2)Oc2c(NS(=O)(=O)c3cn(C)cn3)cccc2C1=O	-6%
COC(=O)c1sccc1NC(=O)c1cc(-c2ccc(C)cc2)nc2ccccc12	4%
CCOc1ccc(N2CC(C(=O)Nc3nnc(SCCOC)s3)CC2=O)cc1 (stereo not drawn)	3%
CCOc1ccc(C2C(=O)N(C3CCCCCC3)CC(=O)N2Cc2ccccc2)cc1OC (stereo not drawn)	12%
CCOc1ccccc1NC(=O)N1CCc2c(sc3c2CCCC3)C1c1ccccc1 (stereo not drawn)	6%
Cc1ccc(-c2ccc(=O)n(CC(=O)NCCN(C)C)n2)cc1	-16%
COc1c2ccoc2nc2c(OC)c(OC[C@@H](O)C(C)(C)O)ccc12	-10%
O=C(NCCCNC(=O)c1ccccn1)c1ccc(F)cc1	?
COc1cc(/C=N/n2c(C)nc3ccccc3c2=O)cc(OC)c1O	-7%
COc1ccc(CNS(=O)(=O)c2cnc(N)nc2)cc1	1%
C=C1C2CC[C@@]3(C)C(c4ccoc4)OC(=O)C[C@@]13OC1CC(=O)C(C)(C)C(CC(=O)OC)[C@]12C (stereo partly drawn)	-8%
Cc1ccccc1CN(c1ccc(C(=O)NCCC2=CCCCC2)cc1)S(C)(=O)=O	-13%
O=C(NCCO)c1cccc2c1C(=O)c1ccccc1-2	-23%
O=C(O)c1cccc(CSc2nnc(-c3ccc(Cl)cc3)o2)c1	0%
CCN1C/C(=N\S(=O)(=O)/N=C2\CN(CC)C(=O)N2CC)N(CC)C1=O	20%
Cc1ccccc1NC(=O)Cc1nc(CCl)cs1	-22%
COc1cc(C(=O)NCc2ccc3c(c2)OCO3)ccc1OCc1c(C)noc1C	7%
CCCCOC(=O)Nc1ccc(C(=O)OC)cc1	-7%
COc1ccc(C2SCC(=O)N2CC23CC4CC(CC(C4)C2)C3)cc1 (stereo not drawn)	-9%
COc1ccc(N2CC(NC(=O)NCCC(C)C)CC2=O)cc1 (stereo not drawn)	-10%
C=C(C)c1cccc(C(C)(C)NC(=O)N2CCN(CC(N)=O)CC2)c1	21%
COc1ccc(/C=N/NC(=O)CN2CCSCC2)c(OC)c1	-1%
CCN(c1ccccc1)c1nnc(NC(=O)Nc2ccc(Br)cc2)s1	14%
Cc1ccccc1NC(=O)Cn1nnc2sc3c(c2c1=O)CC(C)(C)OC3	-9%
COc1ccc(N(C(=O)Cn2nnc(-c3ccc(F)cc3)n2)C(C)C(=O)NC2CCCC2)cc1 (stereo not drawn)	-4%
COc1ccc(/C=N/NC(=O)Cn2nnc3ccccc32)cc1OC	-7%
O=C(CNS(=O)(=O)c1cccs1)N1CCc2ccccc2C1	10%
COc1ccc(OCC(O)CN2CCN(CC(O)COc3ccc(OC)cc3)CC2)cc1 (stereo not drawn)	12%
CCOc1ccc(/C=C(\C)C(=O)c2c(C)cc(C)[nH]c2=O)cc1	-5%
CC(=O)Nc1ccc(Nc2cc(C)nc3ccccc23)cc1	-12%
O=S(CCc1ccncc1)Cc1ccccc1 (stereo not drawn)	-21%
COc1cccc(NC(=O)CN(C)C(C)C(=O)Nc2cc([N+](=O)[O-])ccc2Cl)c1 (stereo not drawn)	-17%
CC(NC(=S)NCCN1CCOCC1)C12CC3CC(CC(C3)C1)C2 (stereo not drawn)	-7%
Cc1ccc(OCC(=O)N/N=C/c2ccncc2)cc1C	-5%
COC(=O)CCC(C)C1CCC2C3CCC4CC(O)CCC4(C)C3CC(O)C12C (stereo not drawn)	1%
O=C(COC(=O)c1ccccn1)Nc1ccc(S(=O)(=O)N2CCOCC2)cc1	6%
CCN1C2=NCCCN2c2ccccc21	5%
C=CC(COCc1ccccc1)N(Cc1ccc(OC)cc1)S(=O)(=O)c1ccccc1Br (stereo not drawn)	-14%&2%
O=C(CCc1ccccc1)Nc1nc2n(n1)C(c1ccc(Cl)cc1)CC(=O)N2 (stereo not drawn)	-8%
CN(c1ccccc1)S(=O)(=O)c1cc(Cl)ccc1Cl	-12%
Cc1c(-c2nc(-c3cccnc3)no2)cccc1[N+](=O)[O-]	-21%
O=C(COC(=O)[C@@H]1CCCN1S(=O)(=O)c1ccccc1F)NCc1ccc2c(c1)OCO2	22%
CCOc1ccc(N2CC(C(=O)NCCc3ccc(OC)c(OC)c3)CC2=O)cc1 (stereo not drawn)	12%
COc1cccc(CNC(=O)CSc2nc3ccccc3nc2Cc2ccccc2)c1	8%
COc1ccc(CNCCNC(=O)c2cccs2)c(OC)c1OC	-2%
CCOc1ccc(CCNC(=O)C2CC(=O)N(c3ccc4c(c3)OCCO4)C2)cc1OCC (stereo not drawn)	3%
O=C(Nc1cccc(-n2cnnn2)c1)c1cccs1	6%
O=S(=O)(NCc1ccc(F)cc1)c1ccccc1Br	-24%
CCCCC1CN2CCc3c([nH]c4ccccc34)C2(C)C1 (stereo not drawn)	5%
COc1ccc(N2CCN(C3CCCN(C(=O)c4ccoc4)C3)CC2)cc1 (stereo not drawn)	-14%
Cc1cc(NC(=O)CSc2ccc(-c3cccc([N+](=O)[O-])c3)nn2)no1	-13%
CCOCc1cc(C2NC(=O)NC(C)=C2C(=O)OCC)ccc1OC (stereo not drawn)	14%
O=C(N/C(=C/C=C\c1ccccc1)C(=O)N1CCOCC1)c1ccc(Br)cc1	4%
COc1cc2nc(N(CCN(C)C)C(=O)c3ccc(S(=O)(=O)N(C)CC4CCCO4)cc3)sc2cc1OC (stereo not drawn)	-15%
O=C(c1nn2c(C(F)(F)F)cc(-c3ccccc3)nc2c1Cl)N1CCN2CCCC2C1 (stereo not drawn)	-16%
CSc1n[nH]c(=O)n1C1CCCCC1	-12%

Among those listed so far, these contain two or more sulfur atoms:
SMILES	VDR inh
CCOc1ccc(N2CC(C(=O)Nc3nnc(SCCOC)s3)CC2=O)cc1 (stereo not drawn)	3%
O=C(CNS(=O)(=O)c1cccs1)N1CCc2ccccc2C1	10%
COc1cc2nc(N(CCN(C)C)C(=O)c3ccc(S(=O)(=O)N(C)CC4CCCO4)cc3)sc2cc1OC (stereo not drawn)	-15%

More compounds follow:
SMILES	VDR inh
O=C(COC(=O)c1ccc(Cl)nc1)Nc1cccnc1Cl	-4%
CCN(CC)S(=O)(=O)c1ccc(NC(=O)Cc2cccs2)cc1	-15%
CC(C)NC(=S)N1CCN(C(c2ccccc2)c2ccccc2)CC1	-1%
CNc1snc(C)c1C(=O)OCC(=O)c1ccc(OC)c(F)c1	9%
Cc1ccc(C)c(N2CCN(C(=O)CCc3nc(-c4ccc(F)cc4)no3)CC2)c1	-19%
CCOC(=O)Cc1csc(NC(=O)C(C)Oc2ccc3c(C)cc(=O)oc3c2)n1 (stereo not drawn)	-3%
COc1ccc(-c2onc(C)c2C)cc1S(=O)(=O)N1CCN(c2ccc(Cl)cc2)CC1	-4%
CCOC(=O)c1c(-c2ccccc2)csc1NC(=O)CSc1nc(N)cc(N)n1	-7%
Cc1nc(-c2ccccc2)nc2sc(C(=O)c3ccc(F)cc3)c(N)c12	9%
CCN(CC)CCNC(=S)Nc1ccc(F)cc1	-14%
CCc1ccc(NC(=O)C(CC)n2c(=O)c(C(F)(F)F)nc3ccccc32)cc1 (stereo not drawn)	0%
O=C(NCCNc1ccc([N+](=O)[O-])cc1)c1cc(F)c(F)cc1Cl	-5%
CCc1c(O)nc(SC2CC(=O)N(c3ccc(F)c(Cl)c3)C2=O)[nH]c1=O (stereo not drawn)	-16%
COc1ccccc1N1CCN(C2CCCN(C(=O)c3oc(C)cc3C)C2)CC1 (stereo not drawn)	8%
COc1ccc2c(c1)O[C@@H](c1ccc3c(c1)OCO3)[C@H](OC(=O)NCc1ccc3c(c1)OCO3)C2=O	6%

An excerpt of the results above, as a working copy:
SMILES	VDR inh
CCOC(=O)c1c(-c2ccccc2)csc1NC(=O)CSc1nc(N)cc(N)n1	-7%
Cc1nc(-c2ccccc2)nc2sc(C(=O)c3ccc(F)cc3)c(N)c12	9%
CCN(CC)CCNC(=S)Nc1ccc(F)cc1	-14%
CCc1ccc(NC(=O)C(CC)n2c(=O)c(C(F)(F)F)nc3ccccc32)cc1 (stereo not drawn)	0%
O=C(NCCNc1ccc([N+](=O)[O-])cc1)c1cc(F)c(F)cc1Cl	-5%
CCc1c(O)nc(SC2CC(=O)N(c3ccc(F)c(Cl)c3)C2=O)[nH]c1=O (stereo not drawn)	-16%

Next part:
SMILES	VDR inh
CCOc1ccc(NC(=O)CSc2nnc3c(n2)[nH]c2ccc(S(=O)(=O)N(C)C)cc23)cc1	31%[activator]
COc1ccc2[nH]cc(C(=O)NCCc3ccccc3)c(=O)c2c1	-4%
CCN(CC(=O)Nc1ccc(NC(C)=O)cc1)C(=O)CCCOc1ccc(C(C)(C)C)cc1	9%
O=c1[nH]c(/C(=N\O)c2ccccc2)no1	14%
Nc1ccc(CCc2ccc(N)cc2)cc1	14%
O=C(COc1ccc(S(=O)(=O)NC2CCCCC2)cc1)NC1CC1	29%
CC1=N/C(=C\c2ccc(OC(C)C)cc2)C(=O)N1c1ccc(C(=O)O)cc1	-5%
COc1cc(C(=O)N2CCN(c3ccccc3)CC2)c2ccccc2n1	-14%
CCc1ccc(NC(=O)C2=CC(c3ccc(OC)c(OC)c3)=NS(=O)(=O)N2C)cc1	-9%
COc1cc(C(=O)NCC(c2cccnc2)N2CCN(c3ccccc3)CC2)cc(OC)c1OC (stereo not drawn)	-2%
CN(C)S(=O)(=O)Oc1cccc(C(=O)Nc2ccccc2Cl)c1	-6%
COc1ccc(S[C@@H](CCN2CC[C@H](NC(=O)OCc3ccccc3)CCC2=O)c2ccccc2)cc1	-18%
CCc1cccc(OCCCCN(CC)CC)c1	-4%
Cc1ccn2c(=O)c(C(=O)NCCCN3CCCCC3C)c(O)nc2c1 (stereo not drawn)	-6%&-7%
COc1cccc(CNC(=S)NC2CC2)c1	2%
Cc1cc(C)c2c(CC(=O)Nc3ccc(S(=O)(=O)Nc4nc(C)cc(C)n4)cc3)coc2c1	6%
CCCCCN1CC(=O)N2[C@@H](Cc3c([nH]c4ccccc34)C2(C)C)C1=O	17%
CCOC(=O)N/N=C\c1cccc(OC)c1OC/C=C/c1ccccc1	3%
N#Cc1ccc(CSc2nnc(NC(=O)C3CC(=O)N(c4ccc5c(c4)OCCO5)C3)s2)cc1 (stereo not drawn)	10%
COc1cccc(C(=O)N(CN2CCCC2=O)c2cc(C)on2)c1	3%
O=[N+]([O-])c1nn(-c2ccc(Cl)cc2)n(O)c1=NCc1ccccc1	?
Cn1ncc([N+](=O)[O-])c1C(=O)Nc1ccc(-c2nc3ccccc3[nH]2)cc1	-7%
COc1ccc(-c2nn(C)c(=O)c3ccccc23)cc1NC(=O)Cn1nc(-c2ccccc2)c2ccccc2c1=O	-6%
COc1ccc(S(=O)(=O)Nc2ccc3c(c2)OCO3)cc1	2%
COc1ccccc1C(=O)Nc1ccnn1C1CCN(Cc2ccn[nH]2)CC1	1%
O=C(Nc1c2c(nn1-c1cccc(Cl)c1)CS(=O)(=O)C2)c1ccc2c(c1)OCO2	-8%
Cc1nn(-c2ccc([N+](=O)[O-])cc2)c2c1C(c1ccc(OC(F)F)cc1)N1C(=N2)C(=O)Nc2ccccc21 (stereo not drawn)	-2%
CCCCOc1ccc(CNC(=O)C2CCN(c3nnc(-n4cccc4CNc4ccc(C)cc4)s3)CC2)cc1	13%
COc1ccc(/C=C(/C#N)C(=O)Nc2cccnc2)cc1OC	3%
CSc1ccc(CCNC(=O)C(C)n2c(C)c3cnn(-c4ccccc4)c(=O)c3c2C)cc1 (stereo not drawn)	6%
COc1cccc2cc(C(=O)Nc3cc(Cl)ccc3N3CCOCC3)c(=O)oc12	9%
Cc1nn(-c2ccccc2)c(N2CCCC2)c1/C=N/NC(=S)Nc1ccccc1C(F)(F)F	-6%
O=C(c1ccccc1-n1cccn1)N1CCc2c([nH]c3ccccc23)C1c1ccccn1 (stereo not drawn)	14%
COc1ccc(CNS(=O)(=O)c2ccc(N3CCCC3)cc2Br)cc1	?
C=CCOc1cccc(CNCc2cccnc2)c1	22%
COc1ccc(C(=O)N2CCSCC2)cc1OC1CCN(C(C)=O)CC1	-5%
O=C(CSc1nnc(NC(=O)c2ccc(S(=O)(=O)N3CCOCC3)cc2)s1)Nc1ccccc1C(F)(F)F	-5%
O=C(Nc1ccc2c(c1)OCCO2)c1cc2sccc2n1Cc1ccc(F)cc1	6%
CCN(C(=O)COC(=O)c1ccc(O)cc1)c1cccc2ccccc12	5%
CCCCCCCCCCCCCCCCCCNC(=O)OCC(COP(=O)([O-])OCC[n+]1ccsc1)OC (stereo not drawn)	-6%
CCn1c(COc2ccccc2C)nc2ccccc21	-4%
CC(C)NC(=O)N1CCCN(c2nc3ccc(Cl)cc3s2)CC1	2%
COc1ccc(CCNC(=O)COC(=O)Cn2cnc3ccccc32)cc1OC	3%
O=C(Cn1cnnn1)NC1CCCN(Cc2ccccc2F)C1 (stereo not drawn)	8%
Cc1ccc(CN2CCN(Cc3ccc4cccc(F)c4n3)CC2CCO)cc1 (stereo not drawn)	-9%

Fetched by compound from the list above, 7 records:
SMILES	VDR inh
CCCCCCCCCCCCCCCCCCNC(=O)OCC(COP(=O)([O-])OCC[n+]1ccsc1)OC (stereo not drawn)	-6%
COc1ccc(CNS(=O)(=O)c2ccc(N3CCCC3)cc2Br)cc1	?
CCn1c(COc2ccccc2C)nc2ccccc21	-4%
O=C(c1ccccc1-n1cccn1)N1CCc2c([nH]c3ccccc23)C1c1ccccn1 (stereo not drawn)	14%
COc1cccc2cc(C(=O)Nc3cc(Cl)ccc3N3CCOCC3)c(=O)oc12	9%
O=C(CSc1nnc(NC(=O)c2ccc(S(=O)(=O)N3CCOCC3)cc2)s1)Nc1ccccc1C(F)(F)F	-5%
O=C(Nc1ccc2c(c1)OCCO2)c1cc2sccc2n1Cc1ccc(F)cc1	6%

Source: PubChem
